A1 apoptosis 2: A1 inhibitors via caspase activation, primary screen, cell-based, luminescence, HTS, two replicates; MEF A1-2A-BIM cells, caspase-Glo luminescence, 3 h; percent of clofoctol response, DMSO zero; caspase activation, % (concentration not given with the values); 24,000 tested, under 10 active; AID 2465, 2010; in the data active means caspase activation above about 5.9%;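 further: wells of about 30 µL received 50 nL stock; the first replicate is given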
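Material: mouse embryonic fibroblasts co-expressing A1 and BIM (A1-2A-BIM), primed for A1 dependence / Quantity: 2500 cells/well / Buffer or medium: RPMI-1640 growth medium with 10% FBS / Doses: 50 nL compound per well, pinned / Schedule: 3 h compound exposure at 37 °C / Signal: Caspase-Glo luminescence (DEVD substrate) / Measure: Caspase-3/7 activation, seen as rise in luminescence signal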
Starred values were filed as active, the others as inactive.

canonical_smiles,A1 apoptosis 2
C[C@H]1CCCCO[C@@H](CN(C)C(=O)C2CCCCC2)[C@@H](C)CN([C@@H](C)CO)C(=O)c2cc(NC(=O)c3ccncc3)ccc2O1,-0.2
C[C@H]1CN([C@@H](C)CO)C(=O)c2cccc(NC(=O)Nc3ccc(F)cc3)c2O[C@H]1CN(C)Cc1ccc(-c2ccccc2)cc1,-0.3
CC(C)=CCC[C@@H](C)C/C=N/NC(=O)CCCCCCC(=O)O,1.5
C[C@@H]1CCCCO[C@@H](CN(C)C(=O)c2ccccc2)[C@@H](C)CN([C@H](C)CO)C(=O)c2cc(NC(=O)Nc3ccc4c(c3)OCO4)ccc2O1,-0.7
C[C@@H]1CN([C@H](C)CO)C(=O)CCCn2nncc2CO[C@H]1CN(C)C(=O)Cc1ccccc1,0.2
COc1ccc(S(=O)(=O)Nc2ccc3c(c2)C(=O)N([C@@H](C)CO)C[C@@H](C)[C@@H](CN(C)S(=O)(=O)c2c(C)noc2C)O3)cc1,0.3
C[C@H]1CN([C@@H](C)CO)C(=O)c2cccc(NS(C)(=O)=O)c2O[C@@H]1CN(C)S(=O)(=O)c1ccccc1,0.0
C[C@H](CO)N1C[C@H](C)[C@@H](CN(C)Cc2ccccc2)Oc2ccc(NS(=O)(=O)c3ccccc3)cc2C1=O,-1.4
COCCOC(=O)N1C(=O)[C@@]2(c3ccccc31)[C@H](C(=O)N1CCN(c3ncccn3)CC1)[C@H]1C(=O)O[C@H](c3ccccc3)[C@H](c3ccccc3)N1[C@@H]2c1ccccc1OCCO,0.1
CCO[C@@H]1OC(C(=O)N2CCOCC2)=C[C@H](c2ccc(C(F)(F)F)cc2)[C@H]1CCCO,0.7
COc1ccc(CN(C)C[C@H]2Oc3ccc(NC(=O)NC(C)C)cc3CC(=O)N([C@@H](C)CO)C[C@H]2C)cc1,1.0
Cc1noc(C)c1NC(=O)Nc1ccc2c(c1)CC(=O)N([C@@H](C)CO)C[C@@H](C)[C@@H](CN(C)Cc1ccc(C(F)(F)F)cc1)O2,-0.5

Carrying on.
canonical_smiles,A1 apoptosis 2
C[C@@H]1CN([C@@H](C)CO)C(=O)c2cc(NC(=O)Cn3cnnn3)ccc2O[C@H]1CN(C)S(=O)(=O)c1ccc(F)cc1,-0.2
C[C@H](CO)N1C[C@H](C)[C@H](CN(C)C(=O)CCCN(C)C)OCCCC[C@H](C)Oc2ccc(NS(=O)(=O)c3cccs3)cc2C1=O,-0.1
Cc1noc(C)c1NC(=O)Nc1cccc2c1O[C@H](CN(C)CC1CCCCC1)[C@H](C)CN([C@H](C)CO)C2=O,0.1
C[C@H](CO)N1C[C@H](C)[C@@H](CN(C)CC2CCCCC2)Oc2ccc(NC(=O)Nc3ccc4c(c3)OCO4)cc2C1=O,-0.6
COc1ccc(NC(=O)Nc2cccc3c2O[C@@H](CN(C)Cc2ccccc2)[C@H](C)CN([C@H](C)CO)C3=O)cc1,0.2
COc1ccc(S(=O)(=O)N(C)C[C@H]2Oc3c(NC(=O)c4nc5ccccc5s4)cccc3C(=O)N([C@H](C)CO)C[C@@H]2C)cc1,1.0
COc1ccc(NC(=O)Nc2ccc3c(c2)CC(=O)N([C@H](C)CO)C[C@H](C)[C@@H](CN(C)S(=O)(=O)c2ccc(OC)cc2)O3)cc1,-1.2
COc1ccc(S(=O)(=O)Nc2ccc3c(c2)C(=O)N([C@H](C)CO)C[C@H](C)[C@@H](CN(C)C(=O)CCCN(C)C)OCCCC[C@H](C)O3)cc1,-0.2
COc1ccc(S(=O)(=O)N(C)C[C@@H]2Oc3c(NC(=O)C4CC4)cccc3C(=O)N([C@H](C)CO)C[C@H]2C)cc1,0.5
COc1ccc(CN(C)C[C@H]2Oc3ccc(NC(=O)Cc4ccccc4)cc3CC(=O)N([C@H](C)CO)C[C@H]2C)cc1,-0.2
CC(C)NC(=O)Nc1ccc2c(c1)C(=O)N([C@@H](C)CO)C[C@H](C)[C@H](CN(C)C(=O)Nc1ccc3c(c1)OCO3)OCCCC[C@H](C)O2,0.6
C[C@H](CO)N1C[C@H](C)[C@H](CN(C)C(=O)Nc2ccc3c(c2)OCO3)Oc2c(NC(=O)Nc3ccc(C(F)(F)F)cc3)cccc2C1=O,0.9

A few values from the entries so far.
For A1 apoptosis 2, `C[C@H](CO)N1C[C@H](C)[C@@H](CN(C)CC2CCCCC2)Oc2ccc(NC(=O)Nc3ccc4c(c3)OCO4)cc2C1=O` has -0.6
For A1 apoptosis 2, `COc1ccc(CN(C)C[C@H]2Oc3ccc(NC(=O)Cc4ccccc4)cc3CC(=O)N([C@H](C)CO)C[C@H]2C)cc1` has -0.2
For A1 apoptosis 2, `Cc1noc(C)c1NC(=O)Nc1cccc2c1O[C@H](CN(C)CC1CCCCC1)[C@H](C)CN([C@H](C)CO)C2=O` has 0.1
For A1 apoptosis 2, `COc1ccc(S(=O)(=O)N(C)C[C@@H]2Oc3c(NC(=O)C4CC4)cccc3C(=O)N([C@H](C)CO)C[C@H]2C)cc1` has 0.5
For A1 apoptosis 2, `COc1ccc(S(=O)(=O)Nc2ccc3c(c2)C(=O)N([C@H](C)CO)C[C@H](C)[C@@H](CN(C)C(=O)CCCN(C)C)OCCCC[C@H](C)O3)cc1` has -0.2

Continued:
canonical_smiles,A1 apoptosis 2
COC(=O)CCCCCCC(=O)N/N=C/c1ccc([N+](=O)[O-])c(O)c1,-0.4
CNC[C@@H]1Oc2c(NC(=O)C3CC3)cccc2C(=O)N([C@H](C)CO)C[C@H]1C,0.3
C[C@@H]1CN([C@H](C)CO)C(=O)Cc2cc(NC(=O)NC3CCCCC3)ccc2O[C@@H]1CN(C)CC1CCCCC1,-0.5
C[C@@H]1CCCCO[C@H](CN(C)C(=O)c2ccccc2)[C@H](C)CN([C@@H](C)CO)C(=O)c2cc(NC(=O)Nc3ccccc3)ccc2O1,-0.1
CCO[C@@H]1OC(C(=O)O)=C[C@H](C2CC2)[C@H]1CCCO,-1.2
C[C@@H]1CN([C@@H](C)CO)C(=O)c2cc(NC(=O)c3ccncc3)ccc2O[C@@H](C)CCCCO[C@H]1CN(C)C(=O)Nc1cccc2ccccc12,2.0
C[C@@H]1CN([C@@H](C)CO)C(=O)c2cc(NC(=O)CCC(F)(F)F)ccc2O[C@H]1CN(C)C(=O)NC1CCCCC1,2.0
C[C@@H]1CN([C@H](C)CO)C(=O)c2cc(N(C)C)ccc2O[C@H]1CN(C)C(=O)Nc1ccc(C(F)(F)F)cc1,0.0
C[C@H]1CN([C@@H](C)CO)C(=O)c2cc(NC(=O)CCCCCC(=O)Nc3ccccc3N)ccc2O[C@H]1CN(C)C(=O)Nc1ccccc1,0.3
C[C@H]1CN([C@@H](C)CO)C(=O)c2cccc(NC(=O)Nc3ccc(F)cc3)c2O[C@H]1CN(C)S(C)(=O)=O,-1.5
COc1ccc(S(=O)(=O)N(C)C[C@H]2OCCCC[C@H](C)Oc3ccc(NS(=O)(=O)c4cn(C)cn4)cc3C(=O)N([C@H](C)CO)C[C@@H]2C)cc1,-0.6
C[C@@H]1CN([C@@H](C)CO)C(=O)Cc2cc(NS(=O)(=O)c3ccccc3)ccc2O[C@@H]1CN(C)C(=O)Nc1ccc(C(F)(F)F)cc1,0.3

Carrying on.
canonical_smiles,A1 apoptosis 2
C[C@H]1CN([C@@H](C)CO)C(=O)c2cc(NC(=O)Cn3cnnn3)ccc2O[C@H]1CN(C)Cc1ccc(Cl)c(Cl)c1,-0.4
C[C@@H]1CN([C@@H](C)CO)C(=O)Cc2cc(NS(=O)(=O)c3ccc(F)cc3)ccc2O[C@H]1CN(C)C(=O)Nc1ccccc1,2.5
C#CCNC(=O)C1=C[C@@H](c2ccc3c(c2)OCO3)C[C@@H](OCc2ccc(CO)cc2)O1,0.1
C[C@H](CO)N1C[C@H](C)[C@@H](CN(C)C(=O)Nc2ccccc2)Oc2ccc(NC(=O)c3ccncc3)cc2CC1=O,-0.3
Cc1ccc(S(=O)(=O)N(C)C[C@H]2Oc3ccc(NS(=O)(=O)c4ccccc4)cc3C(=O)N([C@@H](C)CO)C[C@@H]2C)cc1,1.9
Cc1noc(C)c1S(=O)(=O)Nc1cccc2c1O[C@@H](CN(C)C)[C@@H](C)CN([C@H](C)CO)C2=O,-0.8
C[C@@H]1CN([C@H](C)CO)C(=O)c2cc(NC(=O)c3ccncc3)ccc2O[C@H]1CN(C)C(=O)NC1CCCCC1,-0.4
CC(C)NC(=O)Nc1ccc2c(c1)C(=O)N([C@@H](C)CO)C[C@H](C)[C@H](CN(C)S(=O)(=O)c1cn(C)cn1)OCCCC[C@@H](C)O2,-0.1
C[C@@H]1CN([C@H](C)CO)C(=O)c2cc(NC(=O)Nc3ccc4c(c3)OCO4)ccc2O[C@@H]1CN(C)Cc1ccc(C(=O)O)cc1,0.9
Cc1noc(C)c1NC(=O)Nc1ccc2c(c1)CC(=O)N([C@@H](C)CO)C[C@@H](C)[C@@H](CN(C)S(=O)(=O)c1ccc(F)cc1)O2,-0.1
Cc1noc(C)c1S(=O)(=O)Nc1cccc2c1O[C@H](CN(C)C(=O)Nc1ccc3c(c1)OCO3)[C@H](C)CN([C@@H](C)CO)C2=O,-1.8
Cc1noc(C)c1NC(=O)N(C)C[C@@H]1Oc2c(NC(=O)C3CCOCC3)cccc2C(=O)N([C@@H](C)CO)C[C@H]1C,-1.4

(cont.)
canonical_smiles,A1 apoptosis 2
C[C@@H]1CN([C@@H](C)CO)C(=O)c2cccc(NC(=O)Nc3ccccc3)c2O[C@@H]1CN(C)CC1CCCCC1,-1.1
CNC[C@H]1Oc2ccc(N(C)C)cc2CC(=O)N([C@@H](C)CO)C[C@@H]1C,-0.4
C[C@H](CO)N1C[C@H](C)[C@H](CN(C)C(=O)NC2CCCCC2)Oc2c(NS(=O)(=O)c3ccccc3)cccc2C1=O,0.5
COc1ccc(S(=O)(=O)Nc2ccc3c(c2)CC(=O)N([C@H](C)CO)C[C@@H](C)[C@@H](CN(C)Cc2ccncc2)O3)cc1,0.0
C[C@@H]1CN([C@@H](C)CO)C(=O)c2cc(NS(=O)(=O)c3ccc(Cl)cc3)ccc2O[C@@H](C)CCCCO[C@H]1CN(C)S(=O)(=O)c1ccccc1,-0.7
C[C@@H]1CN([C@@H](C)CO)C(=O)c2cc(NC(=O)CCN3CCOCC3)ccc2O[C@@H]1CN(C)S(=O)(=O)c1ccc(F)cc1,-0.7
C[C@@H]1CN([C@@H](C)CO)C(=O)Cc2cc(NC(=O)Nc3ccc(F)cc3)ccc2O[C@@H]1CN(C)Cc1ccc2c(c1)OCO2,-2.0
COc1ccc(NC(=O)Nc2cccc3c2O[C@@H](CN(C)S(=O)(=O)c2cn(C)cn2)[C@H](C)CN([C@H](C)CO)C3=O)cc1,-1.4
C[C@@H]1CN([C@@H](C)CO)C(=O)c2cccc(NC(=O)C3CCCCC3)c2O[C@@H]1CN(C)Cc1ccc(-c2ccccc2)cc1,-0.1
C[C@@H]1CN([C@@H](C)CO)C(=O)Cc2cc(NC(=O)Nc3cccc4ccccc34)ccc2O[C@@H]1CN(C)C(=O)NC1CCCCC1,-1.5
O=C(NCc1nc2ccccc2[nH]1)C1=C[C@H](C2CCCCC2)C[C@H](OCCCCO)O1,0.8
C[C@@H]1CCCCO[C@H](CN(C)S(=O)(=O)c2cccs2)[C@@H](C)CN([C@H](C)CO)C(=O)c2cc(NC(=O)Cc3ccccc3)ccc2O1,2.0

Entries above that have a COOH group (3):
canonical_smiles,A1 apoptosis 2
CC(C)=CCC[C@@H](C)C/C=N/NC(=O)CCCCCCC(=O)O,1.5
CCO[C@@H]1OC(C(=O)O)=C[C@H](C2CC2)[C@H]1CCCO,-1.2
C[C@@H]1CN([C@H](C)CO)C(=O)c2cc(NC(=O)Nc3ccc4c(c3)OCO4)ccc2O[C@@H]1CN(C)Cc1ccc(C(=O)O)cc1,0.9

(more compounds)
canonical_smiles,A1 apoptosis 2
C[C@@H]1CN([C@H](C)CO)C(=O)c2cccc(NS(=O)(=O)c3ccc(Cl)cc3)c2O[C@H]1CN(C)Cc1ccccc1,1.0
C[C@@H]1CCCCO[C@H](CN(C)C(=O)Nc2ccc(C(F)(F)F)cc2)[C@@H](C)CN([C@@H](C)CO)C(=O)c2cc(NC(=O)Nc3ccccc3)ccc2O1,-0.1
CC(C)NC(=O)N(C)C[C@@H]1Oc2ccc(NC(=O)CCCN(C)C)cc2CC(=O)N([C@H](C)CO)C[C@@H]1C,-0.3
C[C@H](CO)N1C[C@H](C)[C@@H](CN(C)S(=O)(=O)c2cccs2)Oc2c(NS(=O)(=O)c3ccc(Cl)cc3)cccc2C1=O,-0.3
Cc1noc(C)c1NC(=O)N(C)C[C@@H]1Oc2ccc(N(C)C)cc2CC(=O)N([C@@H](C)CO)C[C@H]1C,0.0
CNC[C@H]1Oc2ccc(NC(=O)C3CCCCC3)cc2CC(=O)N([C@H](C)CO)C[C@H]1C,1.5
Cc1noc(C)c1NC(=O)Nc1ccc2c(c1)C(=O)N([C@H](C)CO)C[C@H](C)[C@@H](CN(C)S(=O)(=O)c1c(C)noc1C)OCCCC[C@@H](C)O2,1.1
C[C@@H]1CCCCO[C@H](CN(C)C(=O)Nc2ccc(C(F)(F)F)cc2)[C@@H](C)CN([C@@H](C)CO)C(=O)c2cc(NS(=O)(=O)c3ccc(F)cc3)ccc2O1,-0.1
C[C@@H]1CN([C@H](C)CO)C(=O)Cc2cc(NC(=O)Nc3ccccc3)ccc2O[C@@H]1CN(C)C(=O)NC1CCCCC1,0.0
C[C@@H]1CCCCO[C@@H](CN(C)Cc2ccc3c(c2)OCO3)[C@H](C)CN([C@@H](C)CO)C(=O)c2cc(NS(=O)(=O)c3cn(C)cn3)ccc2O1,-0.2
C[C@@H]1CCCCO[C@@H](CN(C)CC2CCCCC2)[C@@H](C)CN([C@H](C)CO)C(=O)c2cc(NC(=O)c3ccccc3)ccc2O1,1.0

Compound activity from PubChem.

These rows are one share of the data (hit frequency here may not be typical).
